Source: PubChem BioAssay
VDR inhibitor = vitamin D3 receptor (human) inhibition | P11473 | VDR-SRC2-3 peptide fluorescence polarization, 2 h | Potency, µM, inactives show max response, negative = inhibition, most hits filed as inhibitors | hit rate 0.93% among 400,000; active means well fitted inhibition curve with a large enough effect; inconclusive means small, poorly fitted or top-dose-only effect, or another doubt; inactive means no such curve, though single readings can be large or run the other way; further: series mostly up to about 120 µM
Target sequence (P11473 whole entry, looked up): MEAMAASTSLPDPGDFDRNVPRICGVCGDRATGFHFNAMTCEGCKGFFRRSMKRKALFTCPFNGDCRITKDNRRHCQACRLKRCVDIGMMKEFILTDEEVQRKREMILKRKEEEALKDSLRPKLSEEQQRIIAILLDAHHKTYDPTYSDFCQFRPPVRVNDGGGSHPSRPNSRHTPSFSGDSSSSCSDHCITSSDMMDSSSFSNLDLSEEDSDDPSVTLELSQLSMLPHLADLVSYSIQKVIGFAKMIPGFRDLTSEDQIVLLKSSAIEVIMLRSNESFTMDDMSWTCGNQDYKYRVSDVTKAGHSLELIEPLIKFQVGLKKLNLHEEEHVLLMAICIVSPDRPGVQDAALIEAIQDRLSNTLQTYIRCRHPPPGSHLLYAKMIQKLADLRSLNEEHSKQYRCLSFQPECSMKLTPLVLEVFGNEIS
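After 23 nl compound addition and a short centrifugation, plates sat for 2 hours at ambient temperature; polarization of fluorescence then indicated loss of VDR binding to peptide SRC2-3.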
An asterisk follows results filed as active; ? = inconclusive; & = joins results of further samples. On the % scale 0 is the no-effect control and ±100 the full control effect; potency means the concentration at half of the fitted maximal effect.

SMILES	VDR inhibitor
Cc1ccccc1C(=O)N1CCc2ccccc2C1	-10.5%
CCCCNC(=O)CSc1nc2cc3c(cc2c(=O)n1CCCCCC(=O)NCc1ccc(OC)cc1)OCO3	12.2%
O=C(N/N=C\c1ccc(O)c([N+](=O)[O-])c1)C1COc2ccccc2O1 (stereo unspecified)	-5.8%
CCOC(=O)c1nc2c(=O)n(C)c(=O)n(C)c2n(C)c1=O	-1.7%
CCS(=O)(=O)N1Cc2ccccc2CC1C(=O)Nc1ccccc1OC (stereo unspecified)	6.9%
Cc1ccsc1CN(C)CC(=O)Nc1cccc(S(=O)(=O)N(C)c2ccccc2)c1	6.3%
COC(=O)Nc1ccc(OCC(=O)N2CCOCC2)cc1	-8.7%
COc1cccc(/C=C/C(=O)OCC(=O)c2c(N)n(C)c(=O)n(C)c2=O)c1	1.5%
O=C(NCCN1CCOCC1)c1ccc2c(c1)ncn2C1CCCCC1	8.4%
COc1cccc(CN(Cc2ccccc2F)S(=O)(=O)c2ccc(S(=O)(=O)NCc3ccccc3)cc2)c1	1.1%

Exported field by field: entries from further up.
> CCOC(=O)c1nc2c(=O)n(C)c(=O)n(C)c2n(C)c1=O
  VDR inhibitor = -1.7%

> CCS(=O)(=O)N1Cc2ccccc2CC1C(=O)Nc1ccccc1OC (stereo unspecified)
  VDR inhibitor = 6.9%

> Cc1ccsc1CN(C)CC(=O)Nc1cccc(S(=O)(=O)N(C)c2ccccc2)c1
  VDR inhibitor = 6.3%

> COC(=O)Nc1ccc(OCC(=O)N2CCOCC2)cc1
  VDR inhibitor = -8.7%

Additional compounds.
SMILES	VDR inhibitor
Cc1c(C(=O)NCC(C)C)sc2nc(-c3ccc(F)cc3)cn12	-12.8%
Cc1noc(C)c1C(=O)Nc1ccccn1	3.0%
CCCN(Cc1cc2ccccc2[nH]c1=O)C(=O)c1cccc([N+](=O)[O-])c1	9.7%
Cc1ccc(C(=O)NCC(=O)OCC(=O)Nc2ccccc2C#N)s1	-7.8%
CCCCN1CC(=O)N2[C@H]3c4ccccc4OC[C@@H]3[C@H](c3ccccc3)[C@]2(C)C1=O	?
CC1(C)CC(=NNC(=O)c2n[nH]c3c2CCC3)CC(C)(C)N1	28.9%
CCOc1ccc(S(=O)(=O)Nc2cc(F)ccc2F)c2cccnc12	-4.7%
Cc1ccc(CNS(=O)(=O)c2ccc(CN3C(=O)c4cccnc4C3=O)cc2)o1	5.3%
O=C(COC(=O)Cc1ccc(S(=O)(=O)N2CCOCC2)s1)NCc1ccccc1	7.3%
CC(C)(C)NC(=O)NC(=O)COC(=O)C1CC(=O)N(Cc2ccccc2)C1 (stereo unspecified)	-11.6%
CC(=O)N1CCCc2cc(S(=O)(=O)N3CCC(C(=O)Nc4ccc(C)cc4Cl)CC3)ccc21	-12.8%
COc1cc2c(cc1OC)-c1cc(Nc3ccc4c(c3)OCCO4)nc(=O)n1CC2	-10.6%
CCCOc1ccc(CN(C(=O)c2cccc(OC)c2)C2CCS(=O)(=O)C2)cc1 (stereo unspecified)	8.1%
CC1CC(C)CN(S(=O)(=O)CCNC(=O)c2ccc3c(c2)OCO3)C1 (stereo unspecified)	-1.4%
O=C(NC1CCCC1)C(=O)N(c1ccccc1F)C(C(=O)NCC1CCCO1)c1cccs1 (stereo unspecified)	6.8%
Cc1cc(/C=C2/NC(=O)N(Cc3ccccc3F)C2=O)c(C)n1C(C)C	-14.7%
CCOC(=O)c1ccc(N2C(=O)c3n[nH]c(-c4ccco4)c3C2c2ccc(O)c(OC)c2)cc1 (stereo unspecified)	-14.9%
COc1cc2[nH]c(-c3ccc(C)cc3)cc(=O)c2cc1OC	1.7%&3.0%
CN(C)S(=O)(=O)Oc1ccc(C(=O)Nc2cccc(Cl)c2)cc1	-12.7%
CCCOc1cccc(NC(=O)c2c(-c3ccccc3)noc2C)c1	1.7%
Cc1cc(C)cc(NC(=O)Cn2nc(N3CCN(c4ccccc4)CC3)ccc2=O)c1	5.3%
CCOC(=O)[C@H]1[C@H]2COc3ccc(C)cc3[C@@H]2N2C(=O)CN(Cc3ccc(Cl)cc3)C(=O)[C@@]12C	0.6%
Cc1cccc(C(=O)n2nc(-c3cccnc3)nc2NCc2ccccc2)c1	7.0%
COc1ccc(C(=O)NC(=S)Nc2cc3oc4ccccc4c3cc2OC)cc1	7.2%
CCc1ccc(NC(=O)Cc2c(C(=O)O)c(C)cn2C)cc1	7.9%
CC[C@H](C)[C@H](NS(=O)(=O)c1ccc(C)cc1)C(=O)N1CCC(C(=O)N[C@H](C(=O)O)C(C)C)CC1	8.4%
COc1ccc(C)cc1NC(=O)c1ccc(S(=O)(=O)N2CCOCC2)cc1	4.4%
CC(=O)NCCC(=O)Nc1nc(-c2c[nH]c3ccccc23)cs1	0.8%
O=C1/C(=C/c2cccc([N+](=O)[O-])c2)Oc2cc(O)ccc21	2.0%
Cc1cc(C)c(S(=O)(=O)Nc2ccc(N(C)C)cc2)c(C)c1-n1cnnn1	-2.9%

Arranged by the number under VDR inhibitor (falling): 3 of the compounds above
Molecule,VDR inhibitor
COc1ccc(C(=O)NC(=S)Nc2cc3oc4ccccc4c3cc2OC)cc1,7.2%
CCOC(=O)[C@H]1[C@H]2COc3ccc(C)cc3[C@@H]2N2C(=O)CN(Cc3ccc(Cl)cc3)C(=O)[C@@]12C,0.6%
Cc1cc(C)c(S(=O)(=O)Nc2ccc(N(C)C)cc2)c(C)c1-n1cnnn1,-2.9%

Other records
SMILES	VDR inhibitor
CC1(C)CC(=O)C(C(C2=C(O)CC(C)(C)CC2=O)c2ccc([N+](=O)[O-])cc2)C(=O)C1 (stereo unspecified)	?
COc1ccc(C2/C=C\CN(S(=O)(=O)c3ccc4ccccc4c3)CC(=O)N2Cc2ccc(F)cc2)cc1 (stereo unspecified)	-1.8%&2.4%
Cc1ccc(CNC(=O)CCN2C(=O)C(C)Oc3ccc(C)cc32)cc1 (stereo unspecified)	-7.4%
CC(C(=O)NCc1ccccc1Cl)n1cc([N+](=O)[O-])cn1 (stereo unspecified)	-12.4%
CCOC(=O)N1CCC(n2c(SCC(=O)NCc3ccccc3)nc3ccccc3c2=O)CC1	-3.4%
CSc1nnc(-c2ccncc2)n1/N=C/c1cn(-c2ccccc2)nc1-c1ccc(Cl)cc1	3.4%
CC(C)(C)C(=O)CSc1nc2ccsc2c(=O)n1Cc1ccccc1F	7.7%
CN(c1ccc(C(=O)Nc2ccc(CC#N)cc2)cc1)S(C)(=O)=O	-18.7%
O=C(c1ccc2c(c1)N(Cc1ccccc1)C(=O)c1ccccc1S2(=O)=O)N1CCN(Cc2ccccc2)CC1	-18.5%
CCCC(O)(CCC)C(=O)NNc1ccc(C)cc1	-7.4%
CC1(c2ccc3noc(-c4ccc(F)cc4)c3c2)OCCO1	9.5%
Cc1nc(Oc2cccc(Cl)c2)c2oc3ccccc3c2n1	-3.8%
COc1ccc(CCNCc2c(C(=O)O)c(C)n(Cc3cccc(Cl)c3)c2C)c(OC)c1OC	10.9%
Cc1oc(-c2ccccc2F)nc1CS(=O)(=O)CC(=O)NCCN(C)C1CCCCC1	-9.4%
CC(C)COc1ccc(Cc2cnc(N)nc2N)cc1	-1.8%
C=CCn1c(SCC(N)=O)nc(C)cc1=O	-9.4%
Cc1cc(=O)[nH]c(NCc2ccccc2)n1	-21.0%
O=C(CSc1nc2c([nH]c3ccccc32)c(=O)n1-c1ccccc1)NCC1CCCO1 (stereo unspecified)	6.8%
COc1ccccc1N1C(=O)C(=O)N(C)C1=O	-7.8%
Cc1cccc(/C(N)=N/OC(=O)c2ccoc2C)c1	18.3%

Rewritten in markdown: part of the list above.
| SMILES | VDR inhibitor |
| --- | --- |
| CCCOc1cccc(NC(=O)c2c(-c3ccccc3)noc2C)c1 | 1.7% |
| Cc1cc(C)cc(NC(=O)Cn2nc(N3CCN(c4ccccc4)CC3)ccc2=O)c1 | 5.3% |
| CCOC(=O)[C@H]1[C@H]2COc3ccc(C)cc3[C@@H]2N2C(=O)CN(Cc3ccc(Cl)cc3)C(=O)[C@@]12C | 0.6% |
| Cc1cccc(C(=O)n2nc(-c3cccnc3)nc2NCc2ccccc2)c1 | 7.0% |

New compounds follow.
SMILES	VDR inhibitor
Cc1c(CCC(=O)NCCc2ccccc2F)c(=O)oc2cc(O)ccc12	5.1%
COc1ccc(C)cc1S(=O)(=O)N1CCCC(C(=O)NCc2ccccn2)C1 (stereo unspecified)	4.7%
Cc1noc(C)c1COc1ccccc1C(=O)N(C)Cc1ccc(F)cc1	-12.8%
C/C(=N\NC(=O)c1cc(C)oc1C)c1ccc(N2CCOCC2)cc1	0.0%
COc1ccc(NS(=O)(=O)c2ccc(F)cc2F)cn1	-5.7%
CN(CCOc1ccc(Cl)cc1)C(=O)c1cccc(S(=O)(=O)N2CCN(c3ccc(F)cc3)CC2)c1	2.4%
NC(=O)c1ncn([C@@H]2O[C@H](CNCc3cnc(N4CCOCC4)nc3)[C@@H](O)[C@H]2O)n1	0.6%
CN(C)S(=O)(=O)c1ccc(NC(=O)CN2C(=O)NC(Cc3ccccc3)C2=O)cc1 (stereo unspecified)	8.0%
COc1ccc(-c2nn(C)c3sc(C(=O)N4CCOCC4)cc23)cc1OC	-8.2%
CCNC(=O)c1c(NC(=O)Cc2coc3cc(C)cc(C)c23)sc2c1CCCC2	7.4%
O=C(COC(=O)C1CCCCC1)NCCc1ccccc1	2.3%
O=C(COC(=O)c1cc[n+]([O-])cc1)NC(=O)c1ccc(OC(F)F)cc1	0.1%
COc1ccc(Cl)cc1S(=O)(=O)N1CCN=C1C	10.2%
CCCCn1c(N)c(N(CCC(C)C)C(=O)C2CCCC2)c(=O)[nH]c1=O	-5.1%
CCOC(=O)C1CCCN(c2cc(=O)n(Cc3ccc(F)cc3)c(=O)[nH]2)C1 (stereo unspecified)	-15.5%
CNc1nc(N)c([N+](=O)[O-])c(Nc2cccc(Cl)c2)n1	-9.0%
CC(C#N)Sc1nnc(Nc2ccccc2)s1 (stereo unspecified)	-3.6%
CC(=O)c1cccc(NC(=O)CN(C)S(=O)(=O)c2ccc3c(c2)CCC(=O)N3)c1	-6.1%
COC(=O)c1cc2c(=O)c3ccccc3oc2nc1/C=C/N(C)C	2.1%
CC(C)(C)c1cc(C(=O)NCc2ccccc2)ccn1	0.5%
CC1CC(C)CN(CCCNC(=O)c2nn(C)c3c2CS(=O)(=O)c2ccccc2-3)C1 (stereo unspecified)	13.4%
COc1ccc(N2CCN(CCNC(=O)CCNS(=O)(=O)c3cccs3)CC2)cc1	21.6%
CC(=O)N1CCN(C(=O)c2cccc(S(=O)(=O)Nc3ccc(C)cc3)c2)CC1	2.5%
Cc1ccc(-c2noc(CCC(=O)NCCCN3CCN(c4cccc(Cl)c4)CC3)n2)cc1	12.7%
CCOC(=O)N=S(=O)(Oc1ccc([N+](=O)[O-])cc1)c1ccc(Cl)cc1 (stereo unspecified)	-20.9%
CCOC(=O)C(=CNc1cc(C)nn1-c1ccc(C)cc1)C(=O)OCC	-1.6%
O=C(O)c1occc1CSc1ccccc1	0.0%
CC(C)CC(=O)NN(C)c1nc(-c2ccccc2)nnc1C(F)(F)F	-11.3%
O=C(COC(=O)c1cccnc1Cl)Nc1cc(S(=O)(=O)N2CCCCCC2)ccc1Cl	13.1%
COc1ccc(Oc2ncccc2NC(=O)c2cccc(C)c2C)cc1	-1.0%
O=C(Nc1ccc(F)cc1Cl)c1cnc(N2CCOCC2)c2ccccc12	8.4%
O=C(Nc1nnc(Cc2c[nH]c3ccccc23)s1)c1ccc(Cl)cc1Cl	-6.6%
N#CCCN(Cc1cccnc1)S(=O)(=O)c1ccc(S(=O)(=O)NC2CCCCC2)cc1	18.5%
CCCN(C(=O)c1ccccc1Cc1ccccc1)C1CCS(=O)(=O)C1 (stereo unspecified)	-1.0%
COc1ccc(S(=O)(=O)N2CCC(C(=O)N[C@@H](C)C(=O)NCc3ccccc3OC)CC2)cc1	-0.1%
Cc1ccc(NC(=O)C2CCCN2S(=O)(=O)c2ccc3c(c2)CCCC(=O)N3)cc1Cl (stereo unspecified)	3.1%
COc1ccc(CCNc2nc(-c3cccc(NC(C)=O)c3)cs2)cc1OC	13.9%
COc1cc(CN(C)Cc2ccccc2)cc(OC)c1O	3.8%
C[C@H](CO)N1C[C@H](C)[C@@H](CN(C)C(=O)NC2CCCCC2)Oc2c(NC(=O)Cc3ccccc3)cccc2C1=O	-6.1%
CC(=O)Oc1ccc(C(=O)NC(C)CCc2ccccc2)cc1 (stereo unspecified)	-19.7%
COc1ccc(CNS(=O)(=O)c2cnc(N)nc2)c(OC)c1	7.1%
O=C(NCc1cccnc1)c1ccc(CS(=O)(=O)c2ccc(Cl)cc2)o1	5.0%
Cc1ccc(C(=O)CSc2nnc(CNc3ccc(F)cc3)o2)cc1	15.9%
Cc1cccc(C)c1OCC(=O)N(Cc1ccc(Cl)cc1)CC1CCCO1 (stereo unspecified)	-5.1%
CCOc1cc(Br)ccc1S(=O)(=O)N1CC(C)OC(C)C1 (stereo unspecified)	6.2%
CS(=O)(=O)c1nc(S(=O)(=O)c2ccc(Cl)cc2)c(NCCCN2CCCC2=O)s1	7.1%
COc1ccc(C(=O)/C=C/c2cn(CC(O)CN3CCOCC3)c3ccccc23)cc1 (stereo unspecified)	-15.4%
Cc1cc(NC(=O)CSc2nnc(CNC(=O)c3cccc(C(F)(F)F)c3)o2)no1	-8.4%
COc1cccc(CN(C)C(=O)c2cccc(OC3CCN(C4CCCC4)CC3)c2)c1	-4.5%
OCc1cnc(SCc2ccccc2F)n1Cc1ccc(F)cc1	1.5%

The listing continues:
SMILES	VDR inhibitor
CCN1C(=O)[C@H]2[C@@H](c3ccc(OC)cc3)N3C(=O)CN(Cc4ccccc4)C(=O)[C@@]3(Cc3ccccc3)[C@H]2C1=O	0.8%
COc1ccc(OCC(=O)N/N=C(\C)c2ccc(OC)cc2)cc1	-0.3%
Cc1cc(C)c(NC(=O)CCCn2c(C)c3cnn(-c4ccccc4)c(=O)c3c2C)c(C)c1	15.2%
Cc1cc(C(F)F)n2nc(C(=O)Nc3cc(C)on3)nc2n1	11.4%
C/C(=N\OC(=O)c1ccc(C)cc1)c1sc(C)nc1C	-7.7%
C/C(=N/NC(=O)c1ccc(-c2ccccc2)cc1)c1cccc(O)c1	9.5%
OCc1nc2ccc(Cl)cc2[nH]1	-21.1%
CCCn1c2ccccc2c2cnn(CC(=O)OC)c(=O)c21	-10.5%

The list is partial; rates above refer to the full screens.
